ALR H2O2 inh = inhibitors of human ALR sulfhydryl oxidase, primary screen, biochemical, H2O2 detection, HRP-luminol luminescence, single point | inhibition, % (no concentration beside the values) | FAD-linked sulfhydryl oxidase ALR (Homo sapiens), P55789 | purified ALR, DTT oxidation | actives 3.8% (n = 290,000);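 active = mean and each replicate at 75% or more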;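 also: stock transfer was 7.5 nL into about 7.5 µL; 0% = neutral wells and 100% = wells with inactivated enzyme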
Target sequence (P55789 whole entry, looked up): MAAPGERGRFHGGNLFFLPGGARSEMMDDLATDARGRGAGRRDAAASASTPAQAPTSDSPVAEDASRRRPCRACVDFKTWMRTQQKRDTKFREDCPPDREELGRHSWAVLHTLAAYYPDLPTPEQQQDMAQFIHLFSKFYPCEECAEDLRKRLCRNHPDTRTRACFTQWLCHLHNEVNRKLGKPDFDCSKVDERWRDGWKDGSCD
FGF22 binding = binders of human FGF22 protein, primary screen, FGF22 synaptogenesis inhibitor project, biophysical, thermal shift, single point; Fibroblast growth factor 22 (Homo sapiens), Q9HCT0; recombinant FGF22 thermal shift, SYPRO orange fluorescence; percent of sucrose octasulfate shift, DMSO zero; calls only at 9.99 µM; actives 1.5% (n = 340,000); AID 651658, 2012;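 active = melting point raised past a set limit in the mean and every replicate; three in four hits are not shown here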
UCH37 DUB inh = inhibitors of human UCH37 deubiquitinase, primary screen, biochemical, Ub-AMC cleavage, fluorescence. inhibition, % (no concentration beside the values). actives 0.33% (n = 330,000). purified proteasome/UCH37. AID 588478, 2011. Ubiquitin carboxyl-terminal hydrolase isozyme L5 (Homo sapiens), Q9Y5K5;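 active = mean of two replicates above 20%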;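 also: 0% = compound-free wells with enzyme and 100% = wells lacking proteasome; stock transfer was 100 nL into about 20 µL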
Target sequence (Q9Y5K5 whole entry, looked up): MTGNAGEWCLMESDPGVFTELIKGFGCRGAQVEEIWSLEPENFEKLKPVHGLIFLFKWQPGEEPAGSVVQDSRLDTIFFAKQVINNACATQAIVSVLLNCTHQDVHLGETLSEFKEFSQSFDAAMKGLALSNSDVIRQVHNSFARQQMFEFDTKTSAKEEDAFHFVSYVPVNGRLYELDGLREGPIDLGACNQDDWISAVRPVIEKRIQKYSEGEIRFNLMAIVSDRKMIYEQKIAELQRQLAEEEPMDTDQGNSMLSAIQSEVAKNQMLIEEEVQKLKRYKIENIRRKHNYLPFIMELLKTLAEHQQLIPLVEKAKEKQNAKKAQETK
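Test system – human UCH37 enzyme supplied as purified proteasome complex · Incubation – 30 min preincubation with enzyme, 25 min cleavage at room temperature · Detection – AMC fluorescence from Ub-AMC cleavage, excitation 355 nm, emission 460 nm · Benchmarks – no-proteasome wells (full inhibition) and compound-free wells (no inhibition)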
LANA-H2B inh = blockers of LANA interaction with H2A/H2B – biochemical, FP readout, HTS, primary screen; Protein LANA1 (Human herpesvirus 8 type P (isolate GK18)), Q9QR71; cell-free LANA-H2A/H2B peptide, fluorescence polarization; inhibition, % (no concentration beside the values); actives 0.6% (n = 320,000); AID 2629, 2010; in the data active = inhibition mostly above about 10%, no sharp cut-off; inactive = mostly below about 6.7%;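 also: stock transfer was 7.5 nL into about 10 µL; 0% = median of vehicle wells and 100% = median of positive control wells; one replicate is shown; the record names a cut of 25% in any replicate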
Ecoli growth = E. coli growth inhibition, primary screen, OD600. Escherichia coli growth, 23 h; hits give low values. OD600 absorbance (test concentration not listed). actives 0.21% (n = 330,000). AID 1053175, 2014;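 active = OD600 absorbance below the run mean of sample wells minus 3.6 SD, in any replicate, cut at about 0.56 in these data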;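 also: stock transfer was 300 nL into about 60 µL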
HNF4A DNA FP = change in binding of human HNF4A to DNA, primary screen, biochemical, fluorescence polarization, FITC-DNA. Hepatocyte nuclear factor 4-alpha (Homo sapiens), P41235. 1 h. activity change, % at 10 µM. actives 0.3% (n = 360,000); in the data active = activity change above about 30%, passing the limit was not always enough;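 also: controls were the assay level and a saturating level of protein; the project sought stronger binding though the title names inhibitors; some compounds called inactive have numbers as strong as hits; positive values seem to mean higher polarization but the record does not say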
Target sequence (P41235 whole entry, looked up): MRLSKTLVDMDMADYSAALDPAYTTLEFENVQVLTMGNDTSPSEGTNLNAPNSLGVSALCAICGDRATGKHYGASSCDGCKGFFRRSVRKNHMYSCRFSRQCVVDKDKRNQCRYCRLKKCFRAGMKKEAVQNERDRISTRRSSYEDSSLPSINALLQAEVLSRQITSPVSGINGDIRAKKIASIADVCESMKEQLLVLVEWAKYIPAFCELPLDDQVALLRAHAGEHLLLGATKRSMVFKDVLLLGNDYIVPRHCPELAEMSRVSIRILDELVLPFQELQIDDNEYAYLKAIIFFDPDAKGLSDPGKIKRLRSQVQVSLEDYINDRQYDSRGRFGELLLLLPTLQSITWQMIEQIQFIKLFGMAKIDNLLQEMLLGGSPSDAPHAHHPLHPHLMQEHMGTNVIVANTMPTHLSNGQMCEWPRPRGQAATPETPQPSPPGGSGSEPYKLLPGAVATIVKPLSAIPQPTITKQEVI
Beta2AR agonist = beta2AR agonists driving receptor internalization, primary screen, cell-based, FAP fluorogen, flow cytometry | response, % (no concentration beside the values) | Beta-2 adrenergic receptor (Homo sapiens), P07550 | AID 504454, 2011 | Am2.2-beta2AR cells; reference of the scale not given here | actives 0.43% (n = 340,000);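 active = response above a set limit, near 3 SD of response in nonfluorescent compounds, cut at about 42% in these data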;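 also: stock transfer was 100 nL into about 11 µL; a reference agonist was the positive control; negative values mostly stem from fluorescent compounds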
Numbers without * were called inactive; i = inactive; . = no result given. Not all compounds are listed. The share of hits here may be higher or lower than overall.

SMILES | ALR H2O2 inh | FGF22 binding | UCH37 DUB inh | LANA-H2B inh | Ecoli growth | HNF4A DNA FP | Beta2AR agonist
CCCCCn1c(SCC(=O)c2ccccc2)nc2cc(C(=O)NCc3ccco3)ccc2c1=O | . | . | 1.3 | . | 0.73 | -2.1 | -8
CCN(CCO)C(=O)CC(c1ccccc1)c1cc(Br)ccc1O (stereo unspecified) | 4 | . | 0.2 | 0.5 | 0.69 | -1.3 | -5
Cc1ccc2c(c1)C=CC(C)N2C(=O)c1ccccc1 (stereo unspecified) | -4 | . | 1.0 | 1.1 | 0.76 | -2.5 | 5
Cc1ccc(OC(C)C)c(CN(CCO)CCO)c1 | -7 | . | 4.1 | -4.0 | 0.75 | 0.9 | -5
Cc1ccc2c(Cl)c(C)c(N3CCCC3)nc2n1 | 4 | i | 1.9 | 1.3 | 0.61 | -2.1 | -18
COc1cc(C2NC(C(=O)O)Cc3c2[nH]c2ccccc32)cc(OC)c1OC (stereo unspecified) | -29 | . | 2.1 | -6.5 | 0.65 | -3.0 | -3
COc1ccc(CCc2ccc3ccccc3n2)cc1 | . | i | 4.1 | . | 0.65 | -0.8 | -139
O=c1c2cc(Br)cc(Br)c2oc2nc3n(c(=O)c12)CCCS3 | -11 | . | 6.6 | 2.0 | 0.66 | . | .
Cc1ccc(NS(=O)(=O)c2ccc(OCC(=O)NCc3ccco3)cc2)cc1 | . | . | 1.3 | -0.3 | 0.75 | 1.6 | 2
CCCC(C)NC(=O)c1sc2nc3n(c(=O)c2c1C)CCC3 (stereo unspecified) | -2 | i | -3.2 | 3.4 | 0.64 | -1.8 | 3
C=CCn1c(SCC(=O)NNC(=S)Nc2ccccc2)nnc1-c1ccccc1 | 58 | i | 3.1 | -4.0 | 0.68 | 3.8 | 9
Cc1ccc2nsnc2c1NC(=O)Cc1ccc(Cl)cc1 | -13 | i | . | -13 | . | -4.0 | -1
CCn1cnc2cc(NCc3nc4ccccc4n3C)ccc21 | 33 | i | -6.0 | 8.4 | 0.65 | 2.9 | -15
NC[C@@H]1O[C@H](C23CC4CC(CC(C4)C2)C3)Cc2c1ccc(O)c2O | . | i | 1.9 | 1.6 | . | -1.5 | .
O=C(CCN1CCN(c2ccc(F)cc2)CC1)Nc1ccc(F)cc1 | -1 | . | 4.8 | -0.7 | 0.69 | 1.4 | -4
COc1ccc(OC)c2sc(N(CCCN(C)C)C(=O)CCS(=O)(=O)c3ccccc3)nc12 | 52 | i | 2.2 | -2.9 | 0.63 | -1.6 | 34
CCC(=O)Nc1ccccc1N1CCN(c2ccc(F)cc2)CC1 | -10 | i | . | -3.3 | . | 0.7 | 3
CCNC(=O)n1nccc1C(C)Oc1cccc(C(F)(F)F)c1 (stereo unspecified) | 1 | . | 1.3 | -2.1 | 0.65 | 0.5 | -4
N/C(=N/S(=O)(=O)c1ccccc1)c1cccc([N+](=O)[O-])c1 | -6 | i | . | -7.0 | . | -4.8 | -1
Cc1ccc(C)c(N(CC(=O)Nc2ccccc2C(=O)NCc2ccco2)S(=O)(=O)c2ccccc2)c1 | . | . | -2.3 | -1.5 | 0.72 | 0.8 | -4
COc1ccc(CCN2CC(C(=O)NCCc3cccnc3)CCC2=O)cc1 (stereo unspecified) | -11 | i | 0.1 | -4.5 | 0.72 | 2.4 | -1
O=C(NCc1ccccc1Cl)C1CCCN1S(=O)(=O)c1ccccc1F (stereo unspecified) | 4 | i | 6.8 | 4.2 | 0.64 | 2.4 | 3
CN(C)n1cnc2ccsc2c1=O | -19 | i | 3.9 | 2.4 | 0.67 | 2.7 | -3
COc1ccc2c(c1)C=C(CN1CCN(C(C)C)C(CCO)C1)CO2 (stereo unspecified) | -3 | i | 2.7 | 5.1 | 0.69 | -0.5 | 2
CS(=O)(=O)NCCSCc1ccc(Cl)cc1 | -23 | . | 3.4 | 0.2 | 0.68 | -1.8 | -5
N#Cc1ccsc1NC(=O)c1cccc(-n2cnnn2)c1 | 3 | i | 4.2 | 1.7 | 0.67 | 42* | 4
CN(C)C(=O)CN1C(=O)NC2(CCc3ccccc32)C1=O (stereo unspecified) | -14 | i | 2.0 | 0.0 | 0.73 | 0.3 | 10
CC(C)c1ccccc1OCCCCCN1CCOCC1 | 7 | i | 3.7 | 3.4 | 0.64 | 3.7 | 2
O=C(c1ccccc1-c1nc2ccccc2[nH]1)N1CCOCC1 | -8 | . | -2.2 | 1.8 | 0.76 | 0.1 | 3
CCOC(=O)N1CCN(c2ccc(S(=O)(=O)N3CCOCC3)cc2[N+](=O)[O-])CC1 | -1 | . | 3.1 | -3.9 | 0.69 | -1.5 | 2
O=S(=O)(Nc1ccccn1)c1cccs1 | -3 | i | 2.1 | 3.8 | 0.7 | -1.0 | -1
CCNC(=S)N1CCN=C1Nc1nc(C)cc(C)n1 | -2 | i | 1.1 | 6.7 | 0.71 | 1.8 | -6
N#Cc1c(C(F)(F)F)cc(-c2ccc(F)cc2)[nH]c1=O | -1 | i | i | -2.2 | 0.66 | -1.5 | 12
O=C(Nc1nnc(SCC(=O)N2CCCc3ccccc32)s1)c1ccc2ccccc2c1 | . | . | -73 | 2.9 | 0.71 | 0.9 | -1
Oc1ccc(Br)cc1/C=N/n1c(-c2ccccc2)n[nH]c1=S | 67 | i | . | -0.4 | . | 1.4 | 12
CCOC(=O)C1C(=O)NC(N2CCCCC2)=NC1c1ccco1 (stereo unspecified) | . | . | -0.5 | -2.0 | 0.67 | 3.5 | -3
CCN/N=C(\Cc1nc2ccccc2[nH]1)c1ccccc1 | . | i | . | -0.1 | . | 0.6 | 5
COc1ccc(N(C(=O)CNC(=O)c2ccco2)C(C(=O)NCC2CCCO2)c2ccccc2)cc1 (stereo unspecified) | 0 | i | 3.5 | 2.8 | 0.68 | -0.5 | 3
O=C(Cn1nc(Cc2cccnc2)c2ccccc2c1=O)Nc1ccc2c(c1)OCO2 | -4 | i | 1.7 | 7.7 | 0.7 | -4.8 | 3
CC(Sc1nnnn1-c1ccccc1)C(=O)Nc1ccc(N2CCN(C)CC2)cc1 (stereo unspecified) | -29 | i | -0.1 | 2.0 | 0.65 | 3.1 | -6

Reprinted from the part before: 3 entries, then new ones.
SMILES | ALR H2O2 inh | FGF22 binding | UCH37 DUB inh | LANA-H2B inh | Ecoli growth | HNF4A DNA FP | Beta2AR agonist
COc1ccc(N(C(=O)CNC(=O)c2ccco2)C(C(=O)NCC2CCCO2)c2ccccc2)cc1 (stereo unspecified) | 0 | i | 3.5 | 2.8 | 0.68 | -0.5 | 3
O=C(Cn1nc(Cc2cccnc2)c2ccccc2c1=O)Nc1ccc2c(c1)OCO2 | -4 | i | 1.7 | 7.7 | 0.7 | -4.8 | 3
CC(Sc1nnnn1-c1ccccc1)C(=O)Nc1ccc(N2CCN(C)CC2)cc1 (stereo unspecified) | -29 | i | -0.1 | 2.0 | 0.65 | 3.1 | -6
COc1ccc(CCN=C(N)NS(=O)(=O)c2ccc(F)cc2)cc1 | -2 | i | 3.6 | 1.3 | 0.66 | 0.0 | -3
O=c1[nH]c(CS(=O)(=O)c2ccccc2)nc2ccccc12 | 2 | . | -2.6 | 5.2 | 0.75 | 0.1 | -7
Cc1cc2c(cc1C)CSC(c1c(O)ccc3ccccc13)SC2 | -4 | . | 2.8 | -1.1 | 0.69 | -4.2 | 18
O=C(c1cc(S(=O)(=O)N2CCOCC2)ccc1F)N1CCCc2ccccc21 | -10 | . | 0.7 | 2.8 | 0.72 | -0.7 | -3
CC(=O)NC1C(=O)N=C(SCC(=O)NC(C)c2ccccc2)NC1=O (stereo unspecified) | 8 | i | 8.8 | -0.7 | 0.68 | -1.7 | 0
Cc1cc(C)c2nc(C(F)(F)F)nc(NCCCN3CCCC3=O)c2c1 | -24 | . | 1.7 | 19* | 0.73 | -8.3 | 5
COc1ccc(CC(=O)NCC(=O)NC(Cc2ccccc2)C(=O)O)cc1 (stereo unspecified) | . | i | 2.5 | 7.5 | 0.7 | -3.9 | -37
Cc1cccc(NC(=O)c2ccc3ccccc3n2)n1 | . | . | 0.2 | . | 0.73 | -2.6 | 3
Cc1sc2ncn(Cc3ccccc3F)c(=O)c2c1C | 11 | i | 1.2 | -1.4 | 0.66 | 3.1 | -4
CCNc1nc2c(cnn2C)c(=O)[nH]1 | . | i | 2.5 | . | 0.69 | -2.1 | 15
COc1cccc2sc(NNC(=O)c3nc4ccccc4s3)nc12 | 94* | i | . | -1.8 | . | -2.3 | 10
Cc1ccc(NC(=O)CNC(=O)Cc2cccc3ccccc23)nc1 | -8 | i | 0.5 | -5.8 | 0.69 | 9.2 | 4
O=C(c1ccccc1)N1N=C(c2ccccc2)CC1(O)C(F)(F)F (stereo unspecified) | 1 | i | 0.2 | 6.8 | 0.66 | 8.8 | 7
C/C(=N\Nc1ccccc1)c1cccc(N)c1 | -11 | i | . | -3.0 | . | 2.1 | 5
Cc1ccc(S(=O)(=O)Nc2ccc3c(c2)nc(CCN2CCCCC2)n3C)cc1 | -25 | i | 3.9 | 2.4 | 0.7 | 1.7 | -6
COc1ccc(C(=O)N/C(=C\c2ccccc2)C(=O)Nc2ccc(C(=O)O)cc2)cc1 | -12 | i | 3.1 | 0.4 | 0.66 | -1.2 | 3
Cc1cnc(=O)[nH]c1SCc1cccc([N+](=O)[O-])c1 | 53 | i | -0.1 | 0.3 | 0.69 | 4.5 | 6
Fc1ccc2cnc(-c3ccccc3F)cc2c1 | -9 | i | 0.0 | -4.5 | 0.69 | -0.7 | -3
CC(CCc1ccccc1)NC(=O)C1CCN(c2nnc(-n3cccc3)s2)CC1 (stereo unspecified) | . | i | 4.0 | -0.9 | 0.77 | 0.4 | -11
Cc1ccc(NC(=O)CCNC(=O)Nc2ccccc2)cc1S(=O)(=O)N(C)C | -3 | i | 0.7 | 1.1 | 0.67 | -0.3 | -5

Reformatted: results already given
compound,ALR H2O2 inh,FGF22 binding,UCH37 DUB inh,LANA-H2B inh,Ecoli growth,HNF4A DNA FP,Beta2AR agonist
Cc1cccc(NC(=O)c2ccc3ccccc3n2)n1,.,.,0.2,.,0.73,-2.6,3
O=c1[nH]c(CS(=O)(=O)c2ccccc2)nc2ccccc12,2,.,-2.6,5.2,0.75,0.1,-7
COc1ccc(CC(=O)NCC(=O)NC(Cc2ccccc2)C(=O)O)cc1 (stereo unspecified),.,i,2.5,7.5,0.7,-3.9,-37
Cc1ccc(NC(=O)CCNC(=O)Nc2ccccc2)cc1S(=O)(=O)N(C)C,-3,i,0.7,1.1,0.67,-0.3,-5
CCNc1nc2c(cnn2C)c(=O)[nH]1,.,i,2.5,.,0.69,-2.1,15

Other compounds follow:
SMILES | ALR H2O2 inh | FGF22 binding | UCH37 DUB inh | LANA-H2B inh | Ecoli growth | HNF4A DNA FP | Beta2AR agonist
CC1CCc2c(C(=O)NCCCN3CCOCC3)csc2C1 (stereo unspecified) | -5 | . | -0.9 | -5.3 | 0.69 | -3.1 | -21
Cc1ccn2cc(C(=O)NC3CCN(Cc4ccccc4)CC3)nc2c1 | -2 | i | -2.2 | -2.7 | 0.65 | 0.5 | -2
CCN=c1scc(-c2ccco2)n1/N=C/c1ccc(O)cc1 | -4 | . | . | -5.2 | . | 1.1 | -3
COc1ccc(NC(C)=O)cc1NC(C)C(=O)Nc1ccccc1F (stereo unspecified) | 32 | . | 2.8 | 2.3 | 0.71 | -3.2 | -2
CCCn1nc(NC(=O)c2ccco2)c2cc3ccccc3nc21 | 23 | . | -79 | 2.4 | 0.71 | -1.2 | 21
CC/C(=N\NC(=O)CSc1ncccn1)c1ccc2c(c1)OCCO2 | 22 | i | . | -2.7 | . | -0.2 | 3
